Compound activity (PubChem)
gsp ag = qHTS for Agonist of gsp, the Etiologic Mutation Responsible for Fibrous Dysplasia/McCune-Albright Syndrome: qHTS | gsp mutant cells, cAMP HTRF, 30 min; control for the full effect not named in the record | Potency, µM (series often up to 76.9 µM), for the others: top-dose activation (cAMP increase), usual class: activators | 340,000 tested, 0.13% active; active = well fitted activation curve with a large enough effect; inconclusive = small, poorly fitted or top-dose-only effect, or another doubt; inactive = no such curve, though single readings can be large or run the other way; cell line not stated here;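 further: phosphodiesterase inhibitor Ro 20-1724 added with compounds to block cAMP breakdown; potency means the concentration at half of the fitted maximal effect; nearly all actives have a fitted effect of over 60% in size; about a fifth of the inactives were tested at one dose only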
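Cells stably selected in G418 were plated at 2000/well, grown 16-24 hr, then given compounds in DMSO with the PDE inhibitor […] (300 uM solution added) for 30 min at 37C; cAMP was read by HTRF.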
Menin MLL FP FL = qHTS Assay for Inhibitors Targeting the Menin-MLL Interaction in MLL Related Leukemias: Competition With Fluorescein Labeled MLL-derived Peptide. Fluorescence polarization, fluorescein-MLL peptide displacement from menin. 290,000 tested, under 10 active. AID 1766, 2009. FP activity change, % at 61.4 µM; inconclusive = falling polarisation curve, or a change in total fluorescence; inactive = total fluorescence flat and polarisation flat or rising; no compound was filed as active; the % refers to the polarisation; negative = inhibition;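 further: % of control where 0% means no effect; inhibitors lower the polarisation; unlabelled MLL peptide was the positive control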
PINK1 expr mod = A Quantitative High throughput Screen to Identify Chemical Modulators of PINK1 Expression; PINK1 immunofluorescence, high-content cytometry, 24 h; Potency, µM (highest dose often 76.6 µM), for inactives: top-dose activation (PINK1 increase), hits mostly activators; 410,000 tested, 0.2% active; AID 624263, 2012; active = well fitted activation curve with a large enough effect; inconclusive = small, poorly fitted or top-dose-only effect; inactive = flat fitted curve, though single readings scatter; cell line not stated here;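 further: potency means the concentration at half of the fitted maximal effect; % of control where 0% means no effect; nearly all actives have a fitted effect of over 65% in size; a mitochondrial uncoupler was the plate control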
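PINK1 protein level read as immunofluorescence by microplate cytometer in a fixed, stained stable cell line after 24 h exposure to five compound concentrations, with CCCP as control.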
D2 agonist = Beta-Arrestin HTS for Positive Allosteric Modulators of the Human D2 Dopamine Receptor: Agonists; D(2) dopamine receptor (Homo sapiens), P14416; DiscoveRx PathHunter D2 beta-arrestin, luminescence, 90 min; 100% = 57 uM dopamine signal; activation, % (no concentration beside the values); 360,000 tested, 0.084% active; AID 624465, 2012; in the data active = activation above about 40%; inconclusive = about 15% to 40%; inactive = below about 15%; further: compound concentration not given in the record; the text of the record calls up to 30% inactive
Target sequence (P14416 whole entry, looked up): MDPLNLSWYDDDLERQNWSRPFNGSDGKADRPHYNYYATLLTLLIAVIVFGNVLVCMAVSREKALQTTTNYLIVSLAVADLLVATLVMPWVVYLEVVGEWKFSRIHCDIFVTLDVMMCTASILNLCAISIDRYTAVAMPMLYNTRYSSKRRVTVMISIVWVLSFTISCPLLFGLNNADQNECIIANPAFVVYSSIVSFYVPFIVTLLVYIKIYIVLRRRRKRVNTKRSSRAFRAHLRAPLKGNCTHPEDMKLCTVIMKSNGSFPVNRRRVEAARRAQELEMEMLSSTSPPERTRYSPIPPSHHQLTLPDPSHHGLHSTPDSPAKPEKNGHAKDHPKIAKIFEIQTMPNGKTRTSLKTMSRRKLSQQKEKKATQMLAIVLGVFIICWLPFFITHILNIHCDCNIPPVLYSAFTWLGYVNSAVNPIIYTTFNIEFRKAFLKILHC
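DiscoveRx PathHunter D2 beta-arrestin cells (2,100/well) attached overnight, then compound-stimulated 90 min at 37 C in HBSS/10 mM HEPES/0.1% Tween-20 buffer; beta-galactosidase complementation read by luminescence after 1 h at ambient temperature. Dopamine 57 uM final (EC100) as control.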
gsp antag = qHTS for Antagonists of gsp, the Etiologic Mutation Responsible for Fibrous Dysplasia/McCune-Albright Syndrome: qHTS; gsp-mutant cells, cAMP HTRF, 30 min; control for the full effect not named in the record; Potency, µM (highest dose often 76.9 µM), without a hit: at the highest dose activity change, negative = inhibition, hits mostly inhibitors; 340,000 tested, 0.4% active; active = falling curve of any shape with a large fitted effect; inconclusive = falling curve, mostly with a smaller effect; inactive = flat or rising curve; cell line not stated here;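 further: intracellular cAMP measured with PDE inhibitor Ro 20-1724 present during compound exposure; potency means the concentration at half of the fitted maximal effect; on the % scale 0 is the no-effect control and ±100 the full control effect; nearly all actives have a fitted effect of over 65% in size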
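HTRF cAMP read-out (cAMP-d2 plus anti-cAMP antibody-K in lysis buffer, 30 min RT). Before lysis, cells are exposed to compounds with […] for 30 min at 37C in DPBS containing Ca/Mg, BSA and Tween 20.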
Sfp PPTase inh = qHTS Assay for Inhibitors of Bacillus subtilis Sfp phosphopantetheinyl transferase (PPTase); 4'-phosphopantetheinyl transferase ffp (Bacillus subtilis), Q9F4F7; Biochemical Sfp PPTase activity, qHTS; 310,000 tested, 3.5% active; Potency, µM, for the others: max response, negative = inhibition, hits mostly inhibitors; active means well fitted inhibition curve with a large enough effect; inconclusive means small, poorly fitted or top-dose-only effect, or another doubt; inactive means no such curve, though single readings can be large or run the other way;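 further: the enzyme is Sfp with the accession as filed and its product quenches rhodamine fluorescence; potency means the concentration at half of the fitted maximal effect; 0% = enzyme reaction without inhibitor and -100% = no enzyme wells; top concentration of the series not given in the record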
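Step 1, compound plus 15 nM Sfp-PPTase, 15 min, room temperature. Step 2, add rhodamine-CoA (5 uM) and BHQ-2-YbbR (12.5 uM). Step 3, read 525/598 nm fluorescence at 0 and 30 min.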
ClpP mod = qHTS Assay for Activators of ClpP. ATP-dependent Clp protease proteolytic subunit (Bacillus subtilis (strain 168)), P80244. purified B. subtilis ClpP, FRET peptide cleavage, 20 min. Potency, µM (titrated, usually from 57.5 µM), inactives show at the highest dose activity change, negative = active. 340,000 tested, 1.9% active. AID 651965, 2013; active = well fitted falling curve with a large enough effect; inconclusive = small, poorly fitted or top-dose-only effect; inactive = no such curve, though single readings can be large or run the other way; further: potency means the concentration at half of the fitted maximal effect; the source files actives as falling curves though it sought activators and does not explain the sign; nearly all actives have a fitted effect of over 65% in size; many hits overshoot -100%
Target sequence (P80244 whole entry, looked up): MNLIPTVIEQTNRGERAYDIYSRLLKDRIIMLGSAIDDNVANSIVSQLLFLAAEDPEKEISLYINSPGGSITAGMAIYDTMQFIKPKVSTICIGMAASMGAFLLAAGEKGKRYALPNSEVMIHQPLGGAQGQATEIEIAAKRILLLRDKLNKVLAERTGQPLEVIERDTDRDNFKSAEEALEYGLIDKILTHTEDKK
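Buffer: 100 mM Tris/HCl pH8, 100 mM KCl, 0.05% low protease BSA, 2.5% glycerol, 0.01% Tween-20. ClpP 10 microg/mL final; 20 min RT; delta FRET normalized to ADEP and DMSO controls.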
An asterisk follows results filed as active; ? = inconclusive; . = not tested or not shown; & = joins results of further samples; [ ] = remark or other dose.

SMILES	gsp ag	Menin MLL FP FL	PINK1 expr mod	D2 agonist	gsp antag	Sfp PPTase inh	ClpP mod
NC(=O)c1nsc(C(=O)N(Cc2ccco2)C(C(=O)NC2CCCC2)c2ccc(O)cc2)c1N (centres undefined)	-2.6%[15.4 µM]	0.0	1.9%	-5.9	-26.3%	17.7%	1.0%
CCCCS(=O)CC(COc1ccc(Cl)cc1)OC(=O)c1ccccc1 (centres undefined)	19.1%	-0.1	-1.4%	-2.7	8.0%	-25.2%	0.9%
COc1ccc(C2C(C#N)=C(SC)NC3=C2C(=O)CC(C)(C)C3)cc1 (centres undefined)	-22.7%	-0.5	7.0%	-3.3	-14.0%	11.9%	-10.1%
COc1ccc(C(CNC(=O)Cc2ccccc2F)N2CCCCC2)cc1 (centres undefined)	-2.6%[15.4 µM]	6.2	2.0%	-4.1	9.7%	2.2%	-1.0%
O=C(Nc1cccc(Cl)c1Cl)C1CCN(C(=O)c2cccs2)CC1	0.8%[15.4 µM]	-2.5	-0.1%	1.6	-12.0%	-3.3%	.
CCOc1ccccc1C1CC(=O)NC(SCC(=O)Nc2nccs2)=C1C#N (centres undefined)	4.4%[15.4 µM]	2.6	-1.3%	-6.0	-4.7%	?	0.8%
COc1ccccc1CNC(=O)CCCN1C(=O)COc2ccc(C)cc21	0.0%	1.0	?	-0.5	-2.4%	4.4%	-0.5%
O=C1C2C3C=CC([C@@H]2C(=O)N1C1CC1)[C@H]1C(=O)N(C2CC2)C(=O)C31 (some centres undefined)	-23.9%	-0.8	0.9%	-4.0	19.0%	17.6%	-1.1%
O=C(/C=C/c1ccc(S(=O)(=O)N2CCOCC2)cc1)NCc1ccccc1	4.0%	0.8	4.6%	-1.6	-22.1%	-0.7%	0.8%
Cc1nc2sc(C(c3ccc(Br)cc3)N3CC(C)OC(C)C3)c(O)n2n1 (centres undefined)	-0.8%	-1.2	0.0%	-0.8	4.5%	17.6%	-0.3%
CC(C(=O)NCc1ccco1)n1ccc2cc(S(=O)(=O)N3CCCC3)ccc21 (centres undefined)	?	3.8	-0.5%	-6.0	-9.7%	0.2%	0.2%
CCCCc1nc2cc(C(=O)N3CCCCC3CC(=O)OCC)ccc2o1 (centres undefined)	-2.5%	0.5	0.0%	-3.7	-15.9%	5.9%	-3.8%
NS(=O)(=O)c1ccc(CNC(=S)NC2CCCC2)cc1	-5.0%[15.4 µM]	-2.6	-0.5%	-3.4	12.5%	-14.3%	0.1%
CCSc1nnc(NC(=O)CSc2nnc(-c3c[nH]c4ccccc34)n2CC)s1	-48.6%[inhibitor]	3.0	2.9%	-2.9	-22.5%	13.2%	2.2%
O=C(NNC(=O)c1ccccc1Cl)c1ccc2c(=O)n3c(nc2c1)CCC3	?	.	2.6%	2.5	6.6%	.	-2.0%
COc1ccc(Cl)cc1NC(=O)CSc1nc(C)cc(C)n1	-21.0%	3.4	1.3%	6.0	-3.4%	15.5%	0.1%
Cc1ccc(NC2=CC(=O)CC(C)(C)C2)cc1C	21.2%	-0.4	?	-2.4	-2.1%	15.1%	-0.5%
COc1ccc(C2C(C#N)=C(/N=C/N3CCN(C)CC3)OC3=C2C(=O)CC(C)(C)C3)cc1 (centres undefined)	-66.3%[inhibitor]	-2.5	2.6%	-2.9	-2.2%	10.6%	-1.2%
O=C(COC(=O)Cc1ccccc1[N+](=O)[O-])NC1CCCC1	-0.6%[15.4 µM]	-0.4	3.7%	4.8	18.2%	26.8%	.
O=C(O)COc1ccccc1/C=N/NC(=O)c1ccc2c(c1)OCCO2	-22.9%	.	1.1%	5.1	7.7%	-0.7%	-0.2%
CC(=O)N(C)c1ccc(NC(=O)COc2ccc(Br)cc2C)cc1	-2.8%	1.3	2.7%	-0.6	-15.5%	17.0%	0.9%
CC(C)NC(=O)c1ccccc1NC(=O)/C=C/c1cccc([N+](=O)[O-])c1	8.1%[15.4 µM]	.	7.5%	-2.3	5.1%	-3.1%	-1.4%
O=C(c1cc2ccccc2o1)N1CCN(c2ccccn2)CC1	11.5%	.	-0.8%	-0.7	5.2%	-2.3%	-1.6%
COc1ccc(-c2noc(N3CCC(C(=O)N(C)c4ccccc4)CC3)n2)cc1	6.8%	-2.7	-0.5%	-7.1	-24.4%	-5.8%	-1.7%
O=C(CC1(O)C(=O)N(CCc2ccccc2)c2ccccc21)c1ccccn1 (centres undefined)	8.3%[15.4 µM]	0.3	2.7%	-7.6	.	-7.6%	.

Carrying on.
SMILES	gsp ag	Menin MLL FP FL	PINK1 expr mod	D2 agonist	gsp antag	Sfp PPTase inh	ClpP mod
O=C(NC1CCCCC1)C(c1cccs1)N(C(=O)C(F)(F)F)c1ccccc1 (centres undefined)	-29.5%	2.8	.	-1.5	4.8%	11.2%	0.5%
CC12CCC(C(=O)NNc3ccc([N+](=O)[O-])cc3)(OC1=O)C2(C)C (centres undefined)	-25.6%	3.5	2.2%	-4.5	5.8%	13.7%	.
COc1ccc(C(=O)CNc2ccc3ccccc3c2)cc1	10.9%[15.4 µM]	2.4	4.7%	-7.2	0.9%	-5.3%	.
COc1ccc(N2C(=O)CC(N3CCOCC3)C2=O)cc1 (centres undefined)	16.2%	7.0	-0.8%	-8.1	2.9%	6.7%	0.9%
CC(C)(C)[C@@H]1CCC(=O)N(CC[C@H](Sc2ccccc2)c2ccccc2)CC1	6.5%	3.3	0.4%	-1.0	-12.3%	-29.8%	-1.6%&-2.2%
C/C(=N\NS(=O)(=O)c1ccccc1)c1ccccc1	-7.1%[15.4 µM]	-0.8	0.7%	-1.4	9.1%	8.7%	.
Cc1ccc2nc(-c3ccccc3)c(Cc3ccccn3)n2c1	.	.	11.0%	-3.1	.	.	4.4%
COc1cc(C=Nc2ccccc2C(=O)Nc2ccccc2)cc(OC)c1OC	8.5%	-0.6	0.4%	-0.3	9.3%	16.1%	25.1µM*
COc1cc(C(CC(=O)O)n2cnnn2)ccc1OC(C)C (centres undefined)	-1.4%[15.4 µM]	3.4	1.8%	-6.0	3.2%	5.4%	.
O=C(CSCCO)Nc1ccc(C23CC4CC(CC(C4)C2)C3)cc1	-47.5%[inhibitor]	1.6	0.2%[38.3 µM]	-0.1	0.5%	18.0%	-0.5%
CCc1cccc(NC(=O)c2cccc(S(=O)(=O)N3CCN(C)CC3)c2)c1	5.4%	.	-2.6%	-3.6	-7.1%	3.8%	.
COc1ccc(-c2cc(=O)c3c(O)c(OC)c(O)cc3o2)cc1	.	-2.1	-0.1%	0.4	?	5.2%	6.2%
CC(=O)c1sc(NC(=O)CN2C(=O)NC3(CCCC3)C2=O)nc1-c1ccccc1	1.5%[15.4 µM]	.	1.1%	-6.3	5.6%	.	-3.3%
CN(C)c1ccc(NC(=O)c2ccc(N3CCOCC3)nc2)cc1	15.7%	.	-0.5%	-0.2	?	?	-0.4%
COP(=O)(OC)C(Nc1cc(Cl)cc(Cl)c1)c1cccc(O)c1 (centres undefined)	-22.8%	0.7	-1.3%	-5.0	6.8%	17.1%	0.4%
C/C(N)=C(/C#N)C(=O)COC(=O)c1oc2ccccc2c1COC(C)C	-33.4%[15.4 µM]	-1.3	3.0%	-1.4	-7.3%	-12.9%	-1.8%
CC(C)NC(=O)N(C)C[C@H]1Oc2ncc(Br)cc2C(=O)N([C@H](C)CO)C[C@@H]1C	13.5%	.	0.5%	-9.4	.	.	-0.1%
COc1ccc(Cn2c(C)nc3oc4cc(OC)ccc4c(=O)c3c2=O)cc1	3.4%[15.4 µM]	3.7	7.9%	-5.8	-6.2%	10.4%	1.2%
CN(Cc1ccccc1)C(=O)c1nc[nH]c1C(=O)N1CCN(c2ccccc2)CC1	.	.	0.1%	-1.8	2.7%	.	-3.2%
C=CCNC(=O)C(C)N1c2cccc3cccc(c23)S1(=O)=O (centres undefined)	-10.4%[15.4 µM]	-3.2	2.3%	0.4	6.3%	-6.0%	1.2%
CC1CCN(CC(=O)Nc2ccccc2Sc2ccccc2)CC1	-13.8%	2.1	10.5%	-1.9	-14.8%	-10.2%	-1.0%
O=C(CSC(=S)N1CCCC1)N1CCN(S(=O)(=O)c2cccc([N+](=O)[O-])c2)CC1	?	.	0.0%	1.8	-7.3%	50.1µM*	-0.8%
O=C(CN1CCN(CCO)CC1)Nc1ccccc1	-47.2%[inhibitor]	3.2	-0.1%	-2.0	16.6%	7.6%	-0.3%
CCOc1cccc(=O)c2c(C)n(Cc3ccccc3)c(C)c12	-5.6%	?	0.6%	-1.1	-19.1%	-15.5%	3.1%
COc1cc2c(cc1OC)[C@@H](NC(=O)CCc1ccccc1)[C@H](O)C2	.	.	2.0%	-0.9	6.2%	.	-1.0%

(more compounds)
SMILES	gsp ag	Menin MLL FP FL	PINK1 expr mod	D2 agonist	gsp antag	Sfp PPTase inh	ClpP mod
Cc1ccnc(Nc2nc(-c3ccc(O)cc3)cs2)c1	16.1%[15.4 µM]	0.1	4.8%	4.3	-9.3%	3.8%	-1.4%
CCOC(=O)c1c(NC(C)=O)sc2c1CCN(Cc1ccccc1)C2	?	-2.3	0.5%	-3.3	1.5%	1.4%	1.0%
NC(Cc1ccc(C(F)(F)F)cc1)c1csc(NC(=O)Nc2ccccc2)n1 (centres undefined)	.	.	-1.3%	4.5	.	.	3.5%
c1csc(-c2nc(-c3ccncc3)no2)c1	-45.6%[inhibitor]	2.4	5.6%[38.3 µM]	-0.5	3.1%	3.5%	-2.4%
Cc1ccc(S(=O)(=O)NCCSc2nnnn2-c2ccccc2)cc1	?	-1.1	3.9%	1.6	-11.0%	0.9%	0.2%&-2.9%
S=c1[nH]nc(-c2ccccc2)c2ccccc12	?	-4.7	-5.1%	-0.7	1.9%	14.8%	.
CCc1nnc(SCC(=O)Nc2ccc3c(c2)OCO3)o1	8.5%	0.1	0.5%	-3.3	4.4%	14.3%	0.6%
Cc1ccc(C(C(=O)Nc2ccc3c(c2)OCO3)N(C)C(=O)/C=C\c2ccc3c(c2)OCO3)cc1 (centres undefined)	-15.9%[15.4 µM]	2.5	0.5%	-2.0	-2.2%	12.6%	-0.1%
